gsp agonist = qHTS for Agonist of gsp, the Etiologic Mutation Responsible for Fibrous Dysplasia/McCune-Albright Syndrome: qHTS; AID 624287, 2012; 340,000 compounds, 0.13% hits; Potency, µM (doses to about 76.9 µM), without a hit: at the top dose activation (cAMP increase), actives largely listed as activators; gsp mutant cells, cAMP HTRF, 30 min; control for the full effect not named in the record; active = well fitted activation curve with a large enough effect; inconclusive = small, poorly fitted or top-dose-only effect, or another doubt; inactive = no such curve, though single readings can be large or run the other way; cell line not stated here;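 also: phosphodiesterase inhibitor Ro 20-1724 added with compounds to block cAMP breakdown; potency is read from the fitted curve at half-maximal effect; nearly all actives have a fitted effect of over 60% in size; about a fifth of the inactives were tested at one dose only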
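Cells in DMEM/10% FBS with G418 were pretreated with compounds in DMSO plus […] (300 uM stock) for 30 min at 37C. cAMP was measured by HTRF (cAMP-d2 plus anti-cAMP antibody-K) after 30 min at room temperature.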
ClpP mod = qHTS Assay for Activators of ClpP | 340,000 compounds, 1.9% hits | purified B. subtilis ClpP, FRET peptide cleavage, 20 min | Potency, µM (series often up to 57.5 µM), for inactives: at the highest dose activity change, negative = active | AID 651965, 2013 | ATP-dependent Clp protease proteolytic subunit (Bacillus subtilis (strain 168)), P80244; active = well fitted falling curve with a large enough effect; inconclusive = small, poorly fitted or top-dose-only effect; inactive = no such curve, though single readings can be large or run the other way; also: potency is read from the fitted curve at half-maximal effect; the source files actives as falling curves though it sought activators and does not explain the sign; nearly all actives have a fitted effect of over 65% in size; many hits overshoot -100%
Target sequence (P80244 whole entry, looked up): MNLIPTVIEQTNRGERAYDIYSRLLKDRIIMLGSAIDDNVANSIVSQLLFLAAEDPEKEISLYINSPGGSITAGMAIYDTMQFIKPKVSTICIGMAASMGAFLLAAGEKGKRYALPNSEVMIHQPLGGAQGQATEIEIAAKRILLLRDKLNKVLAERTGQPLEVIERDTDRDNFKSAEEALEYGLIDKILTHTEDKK
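FRET quenching reversal measured ClpP activation: 10 microg/mL B. subtilis ClpP at pH 8 with the FRET-FV decapeptide, read at 430 nm after 320 nm excitation. The 20-min minus 0-min signal was scaled between DMSO/no-enzyme wells and ADEP (5.8 microM final).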
TRPML1 blocker = qHTS for Inhibitors of the Human Mucolipin Transient Receptor Potential 1 (TRPML1); TRPML1-inducible cells, Ca2+ dye fluorescence, FDSS; active compounds read low; inhibition of EC80 agonist-evoked calcium signal; activity change, negative = inhibition, % (concentration not given with the values); 390,000 compounds, 0.02% hits; Mucolipin-1 (Homo sapiens), Q9GZU1; in the data active means activity change below about -50%; inconclusive means about -30% to -50%; inactive means above about -30%;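 also: stimulus is agonist 54-4 at its EC80 concentration; % is scaled to controls: 0 for no effect and ±100 for the full control effect; the text of the record puts the active cut at -80%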
Target sequence (Q9GZU1 whole entry, looked up): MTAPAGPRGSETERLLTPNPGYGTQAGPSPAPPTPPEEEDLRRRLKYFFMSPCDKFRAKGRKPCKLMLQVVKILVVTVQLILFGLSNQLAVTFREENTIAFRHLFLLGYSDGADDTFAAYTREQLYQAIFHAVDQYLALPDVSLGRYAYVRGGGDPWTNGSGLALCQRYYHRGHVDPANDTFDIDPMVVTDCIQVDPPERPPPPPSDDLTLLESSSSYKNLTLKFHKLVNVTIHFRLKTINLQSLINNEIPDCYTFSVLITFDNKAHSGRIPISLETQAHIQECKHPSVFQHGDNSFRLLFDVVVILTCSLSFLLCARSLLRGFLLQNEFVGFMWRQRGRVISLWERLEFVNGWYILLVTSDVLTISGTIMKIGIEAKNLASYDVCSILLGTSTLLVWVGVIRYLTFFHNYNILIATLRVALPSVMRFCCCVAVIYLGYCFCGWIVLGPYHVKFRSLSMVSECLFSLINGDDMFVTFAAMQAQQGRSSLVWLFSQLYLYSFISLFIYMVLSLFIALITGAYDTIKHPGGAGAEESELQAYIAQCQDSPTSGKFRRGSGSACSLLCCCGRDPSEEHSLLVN
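Calcium fluorescence in TRPML1-DL cells induced overnight with Tet: a 110 s read after compound pin addition, then a 110 s antagonist read after challenge with 54-4 at 4 uM final (EC80).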
TRPML1 ag = qHTS for Agonists of the Human Mucolipin Transient Receptor Potential 1 (TRPML1); TRPML1-expressing cells, Ca2+ dye fluorescence, FDSS; host cell line not named in the record; reference of the full effect not given here; activation, % (no concentration beside the values); 410,000 compounds, 0.12% hits; AID 624414, 2012; in the data active = activation above about 50%; inconclusive = about 30% to 50%; inactive = below about 30%; also: 0% is about no effect; the text of the record puts the active cut at 80%
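Cells: TRPML1-DL, 1X Tet inducer, ~16 h at 37 degrees C/5% CO2. Dye: ABD Ca8 no-wash + quencher, 45-90 min RT. Read: 10 s baseline, compound add, 110 s agonist phase; 54-4 EC80 (4uM final), 110 s antagonist phase.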
Menin-MLL FL inh = qHTS Assay for Inhibitors Targeting the Menin-MLL Interaction in MLL Related Leukemias: Competition With Fluorescein Labeled MLL-derived Peptide; Fluorescence polarization, fluorescein-MLL peptide displacement from menin; FP activity change, % at 61.4 µM; 290,000 tested, under 10 active; AID 1766, 2009; inconclusive = falling polarisation curve, or a change in total fluorescence; inactive = total fluorescence flat and polarisation flat or rising; no compound was filed as active; the % refers to the polarisation; negative = inhibition;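 also: % of control where 0% means no effect; inhibitors lower the polarisation; unlabelled MLL peptide was the positive control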
gsp antag = qHTS for Antagonists of gsp, the Etiologic Mutation Responsible for Fibrous Dysplasia/McCune-Albright Syndrome: qHTS. Potency, µM (highest dose often 76.9 µM), for the others: at the highest dose activity change, negative = inhibition, hits mostly inhibitors. gsp-mutant cells, cAMP HTRF, 30 min; control for the full effect not named in the record. AID 624288, 2012. 340,000 compounds, 0.4% hits; active = falling curve of any shape with a large fitted effect; inconclusive = falling curve, mostly with a smaller effect; inactive = flat or rising curve; cell line not stated here;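 also: intracellular cAMP measured with PDE inhibitor Ro 20-1724 present during compound exposure; potency is read from the fitted curve at half-maximal effect; % is scaled to controls: 0 for no effect and ±100 for the full control effect; nearly all actives have a fitted effect of over 65% in size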
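G418-selected cells were plated in DMEM/10% FBS for 16-24 h at 37C, then treated with compounds plus the PDE inhibitor […] (300 uM solution added) for 30 min at 37C. Intracellular cAMP was measured by HTRF after 30 min lysis at room temperature.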
An asterisk follows results filed as active; [ ] = another dose, or the depositor's remark.

`CCOC(=O)C1=C(c2ccccc2)NC(N)=NC1c1ccc(OCc2ccc(C(=O)OC)cc2)cc1` (stereo unspecified) gave gsp agonist 15%, ClpP mod -2.0%, Menin-MLL FL inh 1.6 and gsp antag 1%.
`CCOCCCNC(=O)Cn1ncc2c([nH]c3ccccc32)c1=O` gave ClpP mod -23%, TRPML1 blocker -16 and TRPML1 ag 1.5.
`S=C1NCCc2ccc(Cl)cc2C1c1ccccc1Cl` (stereo unspecified) gave gsp agonist -30%, ClpP mod -0.2%, TRPML1 blocker 43, TRPML1 ag 0.7, Menin-MLL FL inh 1.5 and gsp antag inconclusive.
COc1ccccc1NC(=O)Cc1noc(CSc2nnc(N)s2)n1 was read as gsp agonist -14%, ClpP mod -2.5%, TRPML1 blocker -1, TRPML1 ag 0.3, Menin-MLL FL inh 0.8 and gsp antag -4%.
For COc1ccc(C)cc1NC(=O)CSc1nc(=O)n(Cc2ccccn2)c2c1CCC2 the results were ClpP mod -4.2%, TRPML1 blocker -4 and TRPML1 ag 0.1.
Screening O=c1c2cc3c(nc2[nH]c(=S)n1-c1ccccc1)CCCC3 returned gsp agonist inconclusive, TRPML1 blocker -5, TRPML1 ag 0.1, Menin-MLL FL inh 0.0 and gsp antag 11%.
`CN(CCOC(=O)/C=C/c1ccco1)Cc1ccccc1` gave gsp agonist -52%[inhibitor], ClpP mod 3.1%, TRPML1 blocker 9, TRPML1 ag 1.8, Menin-MLL FL inh 3.3 and gsp antag 6%.
For CC1=C(C(=O)Nc2cccc([N+](=O)[O-])c2)C2(CCC(C)CC2)OC1=O (stereo unspecified) the results were gsp agonist 3%[15.4 µM], TRPML1 blocker -28, TRPML1 ag 0.0, Menin-MLL FL inh -0.5 and gsp antag 0%.
Screening COC(=O)c1ccc2c(c1)N(CC(=O)Nc1ccc(OC)c(Cl)c1)C(=O)c1ccccc1S2 returned ClpP mod -5.3%, TRPML1 blocker -19 and TRPML1 ag 2.5.
`c1cnc(Nc2nc(-c3ccc4ccccc4c3)cs2)nc1` gave gsp agonist -45%[inhibitor], ClpP mod 0.3%, TRPML1 blocker 21, TRPML1 ag 0.0, Menin-MLL FL inh -0.7 and gsp antag -2%.
Cc1ccc2nc(N/C(N)=N/S(=O)(=O)c3ccc([N+](=O)[O-])cc3)nc(C)c2c1 was read as gsp agonist -1%[15.4 µM], ClpP mod 0.4%, TRPML1 blocker 6, TRPML1 ag -0.6, Menin-MLL FL inh 8.0 and gsp antag -7%.
For CC(C)(C)C(=O)N1CCN(c2nc3c(F)cccc3s2)CC1 the results were ClpP mod 0.9%, TRPML1 blocker 64 and TRPML1 ag 0.9.
For COc1ccc(C2=CC(=O)C[C@H](c3ccc(OC)c(OC)c3)C2)cn1 the results were ClpP mod -1.6%, TRPML1 blocker -9, TRPML1 ag -0.8 and gsp antag -6%.
Screening COc1ccc(-c2ccc3c(c2)[C@@H]2C[C@H](N(C)C(=O)Nc4ccccc4)[C@H]([C@H](C)O)C(=O)N2CC3)cc1 returned ClpP mod -1.5%, TRPML1 blocker -5, TRPML1 ag -0.6 and gsp antag -14%.
O=C(CCc1nc2ccccc2c(=O)[nH]1)N1CCN(S(=O)(=O)c2ccc(Cl)c(C(F)(F)F)c2)CC1 was read as gsp agonist 6%, ClpP mod -1.3%, TRPML1 blocker 6, TRPML1 ag 0.2 and gsp antag inconclusive.

Not a retest: 2 of the compounds above.
`CCOC(=O)C1=C(c2ccccc2)NC(N)=NC1c1ccc(OCc2ccc(C(=O)OC)cc2)cc1` (stereo unspecified) gave gsp agonist 15%, ClpP mod -2.0%, Menin-MLL FL inh 1.6 and gsp antag 1%.
`CCOCCCNC(=O)Cn1ncc2c([nH]c3ccccc32)c1=O` gave ClpP mod -23%, TRPML1 blocker -16 and TRPML1 ag 1.5.

(listing goes on)
`CCc1cccc(N2C(=O)CSC23C(=O)Nc2ccccc23)c1` (stereo unspecified) gave ClpP mod -0.3%, TRPML1 blocker -3 and TRPML1 ag 1.7.
For O=C(NNc1cccc(Cl)c1)c1cccnc1Cl the results were gsp agonist -88%[inhibitor], ClpP mod 1.2%, TRPML1 blocker 0, TRPML1 ag 0.7, Menin-MLL FL inh 3.6 and gsp antag 2%.
O=c1o[nH]c(-c2ccccc2)c1C=Nc1ccc(Cl)cc1 was read as gsp agonist -1%[15.4 µM], TRPML1 blocker -6, TRPML1 ag 0.6, Menin-MLL FL inh -0.8 and gsp antag -24%.
Screening c1ccc(-n2ncc3cccnc32)cc1 returned gsp agonist inconclusive, ClpP mod 3.6%, TRPML1 blocker 58, TRPML1 ag 3.2, Menin-MLL FL inh 0.1 and gsp antag 2%.
`NC(=O)CSc1nc2ccc(NC(=O)COc3ccccc3)cc2s1` gave ClpP mod -2.2%, TRPML1 blocker 34 and TRPML1 ag 0.0.
For O=C(CSc1nc2ccccc2s1)NC1CCS(=O)(=O)C1 (stereo unspecified) the results were gsp agonist 12%, ClpP mod -0.6%, TRPML1 blocker -13, TRPML1 ag 4.3, Menin-MLL FL inh 2.1 and gsp antag 12%.
Cc1cc(=O)[nH]c(SC(C(=O)O)c2ccccc2)n1 (stereo unspecified) was read as gsp agonist 2%, ClpP mod -2.4%, TRPML1 blocker 0, TRPML1 ag -0.2, Menin-MLL FL inh 0.9 and gsp antag 8%.
Cc1ccc(CS(=O)(=O)CCC(=O)N2CCOCC2)cc1 was read as gsp agonist -6%, ClpP mod -8.6%, TRPML1 blocker 9, TRPML1 ag 0.7, Menin-MLL FL inh 1.7 and gsp antag 1%.
`COc1ccc(/C=C/C(=O)c2ccccc2)c(OC)c1` gave gsp agonist 2%[15.4 µM], TRPML1 blocker 0, TRPML1 ag -0.3, Menin-MLL FL inh -3.7 and gsp antag -7%.
Screening Cc1cccc(C)c1NC(=O)CNC(=O)c1cccnc1 returned gsp agonist 3%, ClpP mod 2.5%, TRPML1 blocker 9, TRPML1 ag 5.8 and gsp antag 13%.
CC(=O)Nc1cccc(NC(=O)c2cc3c(=O)n4cccc(C)c4nc3n2C)c1 was read as ClpP mod -18%, TRPML1 blocker -27 and TRPML1 ag 1.5.
Screening CCOC(=O)C1CCc2c(ccc3ccccc23)N1CCC#N (stereo unspecified) returned gsp agonist -10%, ClpP mod 4.0%, TRPML1 blocker 17 and TRPML1 ag 0.7.
Screening CC(C)C(=O)N1CCN(c2ccccc2NC(=S)NC(=O)c2ccco2)CC1 returned gsp agonist -19%, ClpP mod -1.9%, TRPML1 blocker 17, TRPML1 ag 0.2 and gsp antag -26%.
For O=[N+]([O-])c1ccc(N2CCOCC2)cc1NCCCO the results were gsp agonist -1%[15.4 µM], TRPML1 blocker -9, TRPML1 ag -0.1, Menin-MLL FL inh -0.5 and gsp antag -4%.
`C/C(=N\NC(=O)c1ccccc1O)C1CC1` gave gsp agonist 0%, TRPML1 blocker -5, TRPML1 ag 1.0, Menin-MLL FL inh -0.5 and gsp antag 9%.
For CCOc1cc(C(=S)N2CCOCC2)ccc1OC(=O)c1ccc(C)cc1 the results were gsp agonist -8%, ClpP mod 1.8%, TRPML1 blocker 8, TRPML1 ag 2.6, Menin-MLL FL inh -1.5 and gsp antag -20%.
For O=C(CSc1nc2ccccc2n1Cc1ccccc1)N1CCN(c2ccc(F)cc2)CC1 the results were ClpP mod 7.0%, TRPML1 blocker 3 and TRPML1 ag 0.5.
`COc1cccc(Nc2ncnc3sc(C)cc23)c1` gave gsp agonist -2%, ClpP mod -3.7%, TRPML1 blocker 2, TRPML1 ag 0.4 and gsp antag -13%.
For c1ccc(C(=C2CCCO2)c2ccccc2)cc1 the results were gsp agonist -86%[inhibitor], ClpP mod -3.5%, TRPML1 blocker -6, TRPML1 ag 1.6 and gsp antag -7%.
`COc1ccc(-c2nc3sc(CCNC(=O)C(C)(C)C)c(C)n3n2)cc1` gave ClpP mod -4.6%, TRPML1 blocker 11 and TRPML1 ag 1.5.
For O=C(CN1C(=O)NC2(CCCC2)C1=O)N1CCN(S(=O)(=O)c2cc(Cl)ccc2Cl)CC1 the results were gsp agonist -7%, ClpP mod 1.4%, TRPML1 blocker 19, TRPML1 ag 2.0 and gsp antag 2%.
For CC1(C)Cc2c(c(-c3ccccc3)[nH]c(=O)c2C#N)CS1 the results were gsp agonist -31%[inhibitor], ClpP mod -35%, TRPML1 blocker 2, TRPML1 ag 0.0, Menin-MLL FL inh 1.6 and gsp antag -6%.
CN(C(=O)C(Cl)Cl)c1ccc(OC(=O)c2ccco2)cc1 was read as ClpP mod 2.0%, TRPML1 blocker 5, TRPML1 ag -0.4, Menin-MLL FL inh 0.1 and gsp antag 2%.
COCCn1c(SCc2cnc(-c3ccccc3)s2)nnc1-c1ccncc1 was read as gsp agonist -14%, ClpP mod -3.4%, TRPML1 blocker 11, TRPML1 ag -1.1, Menin-MLL FL inh 2.5 and gsp antag -34%.
`COc1ccc(C2c3cc(OC)c(OC)cc3CC(=O)N2c2ccc(C)c(F)c2)cc1` (stereo unspecified) gave ClpP mod -2.0%, TRPML1 blocker 7 and TRPML1 ag -1.2.
Cc1ccc(Cl)cc1NC(=O)CN1CCOCC1 was read as gsp agonist -12%[15.4 µM], ClpP mod 0.3%, TRPML1 blocker -5, TRPML1 ag -0.2 and gsp antag 9%.
`COc1ccc(S(=O)(=O)N(C)C[C@@H]2OCc3cnnn3CCCC(=O)N([C@H](C)CO)C[C@@H]2C)cc1` gave gsp agonist 7%, ClpP mod -0.6%, TRPML1 blocker 6 and TRPML1 ag -0.5.
`Cc1onc(-c2c(Cl)cccc2Cl)c1C(=O)c1c[nH]c(C(=O)NC2CC2)c1` gave gsp agonist -13%, ClpP mod -0.2%, TRPML1 blocker 10, TRPML1 ag 1.2, Menin-MLL FL inh 0.6 and gsp antag -6%.
Screening O=C(Nc1cccc(S(=O)(=O)N2CCOCC2)c1)c1cc([N+](=O)[O-])ccc1N1CCOCC1 returned gsp agonist inconclusive, ClpP mod 1.2%, TRPML1 blocker -7, TRPML1 ag 0.3 and gsp antag -2%.
For CSC1=NC2(CCCCC2)CC12C=CC(=O)C=C2 the results were gsp agonist -12%, ClpP mod 2.3%, TRPML1 blocker 0, TRPML1 ag -0.4, Menin-MLL FL inh -1.8 and gsp antag -8%.
Cc1ccccc1C(=O)N1CCN(S(=O)(=O)c2ccccc2)CC1 was read as gsp agonist -18%, ClpP mod -1.9%, TRPML1 blocker -12, TRPML1 ag 0.2, Menin-MLL FL inh -1.8 and gsp antag 2%.

Bioassay records as filed in PubChem BioAssay.
